Screening data from PubChem.
D2 ag: activates the human D2 dopamine receptor | P14416 | DiscoveRx PathHunter D2 beta-arrestin, luminescence, 90 min; 100% = 57 uM dopamine signal | activation, % (test concentration not listed) | hit rate 0.084% among 360,000 | AID 624465; in the data active = activation above about 40%; inconclusive = about 15% to 40%; inactive = below about 15%; note: compound concentration not given in the record; the text of the record calls up to 30% inactive
Target sequence (P14416 whole entry, looked up): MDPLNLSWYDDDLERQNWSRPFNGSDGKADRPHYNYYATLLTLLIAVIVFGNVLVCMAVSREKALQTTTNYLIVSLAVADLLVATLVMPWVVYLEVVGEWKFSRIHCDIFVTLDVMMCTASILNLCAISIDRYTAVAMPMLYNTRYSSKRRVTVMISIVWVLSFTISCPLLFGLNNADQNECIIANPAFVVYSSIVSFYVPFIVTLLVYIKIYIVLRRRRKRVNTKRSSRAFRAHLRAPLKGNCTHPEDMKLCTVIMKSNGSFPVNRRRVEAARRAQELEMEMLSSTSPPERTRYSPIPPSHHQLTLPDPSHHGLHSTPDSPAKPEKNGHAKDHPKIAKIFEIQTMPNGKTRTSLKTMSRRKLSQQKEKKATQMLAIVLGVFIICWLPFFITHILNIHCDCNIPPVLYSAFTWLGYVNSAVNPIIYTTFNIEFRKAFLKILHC
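Agonist mode: compounds alone added to overnight-plated D2 PathHunter cells for 90 min at 37 C, with 57 uM final dopamine (EC100) defining full response. Beta-arrestin recruitment detected by chemiluminescent reagent, read after 1 h at ambient temperature.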
gsp agonist: agonists of gsp mutant (McCune-Albright syndrome); hit rate 0.13% among 340,000; Potency, µM (top dose mostly 76.9 µM), without a hit: at the top dose activation (cAMP increase), usual class: activators; gsp mutant cells, cAMP HTRF, 30 min; control for the full effect not named in the record; active = well fitted activation curve with a large enough effect; inconclusive = small, poorly fitted or top-dose-only effect, or another doubt; inactive = no such curve, though single readings can be large or run the other way; cell line not stated here;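 note: phosphodiesterase inhibitor Ro 20-1724 added with compounds to block cAMP breakdown; potency is the fitted concentration of half-maximal effect; nearly all actives have a fitted effect of over 60% in size; about a fifth of the inactives were tested at one dose only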
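Cells in DMEM/10% FBS with G418 were pretreated with compounds in DMSO plus […] (300 uM stock) for 30 min at 37C. cAMP was measured by HTRF (cAMP-d2 plus anti-cAMP antibody-K) after 30 min at room temperature.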
PINK1 modulator: changes PINK1 expression. PINK1 immunofluorescence, high-content cytometry, 24 h. Potency, µM (titrated, usually from 76.6 µM), for inactives: at the top dose activation (PINK1 increase), hits mostly activators. hit rate 0.2% among 410,000; active = well fitted activation curve with a large enough effect; inconclusive = small, poorly fitted or top-dose-only effect; inactive = flat fitted curve, though single readings scatter; cell line not stated here;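 note: potency is the fitted concentration of half-maximal effect; % of control where 0% means no effect; nearly all actives have a fitted effect of over 65% in size; a mitochondrial uncoupler was the plate control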
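Compound titrations (5 concentrations, 24 h) on a stable cell line; DMSO and CCCP controls. Endpoint: fixed-cell PINK1 immunofluorescence with mitochondrial, cell and nuclear markers, scanned by microplate cytometer.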
Sfp inh: blocks B. subtilis Sfp PPTase activity; Q9F4F7; Biochemical Sfp PPTase activity, qHTS; Potency, µM, for inactives: max response, negative = inhibition, hits mostly inhibitors; hit rate 3.5% among 310,000; active = well fitted inhibition curve with a large enough effect; inconclusive = small, poorly fitted or top-dose-only effect, or another doubt; inactive = no such curve, though single readings can be large or run the other way;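 note: the enzyme is Sfp with the accession as filed and its product quenches rhodamine fluorescence; potency is the fitted concentration of half-maximal effect; 0% = enzyme reaction without inhibitor and -100% = no enzyme wells; top concentration of the series not given in the record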
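Reaction rates are the 30-min fluorescence difference (ex 525, em 598 nm) in wells containing 15 nM Sfp, 5 uM rhodamine-CoA and 12.5 uM BHQ-2-YbbR at pH 7.6 with 10 mM MgCl2.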
gsp antagonist: antagonizes gsp, the McCune-Albright syndrome mutation | hit rate 0.4% among 340,000 | Potency, µM (series often up to 76.9 µM), for the others: at the highest dose activity change, negative = inhibition, hits mostly inhibitors | gsp-mutant cells, cAMP HTRF, 30 min; control for the full effect not named in the record | AID 624288; active = falling curve of any shape with a large fitted effect; inconclusive = falling curve, mostly with a smaller effect; inactive = flat or rising curve; cell line not stated here;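 note: intracellular cAMP measured with PDE inhibitor Ro 20-1724 present during compound exposure; potency is the fitted concentration of half-maximal effect; % is set by controls: 0 for no effect and ±100 for the full control effect; nearly all actives have a fitted effect of over 65% in size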
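G418-selected cells were plated in DMEM/10% FBS for 16-24 h at 37C, then treated with compounds plus the PDE inhibitor […] (300 uM solution added) for 30 min at 37C. Intracellular cAMP was measured by HTRF after 30 min lysis at room temperature.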
Menin MLL FP FL: displaces fluorescein MLL peptide from human menin; Fluorescence polarization, fluorescein-MLL peptide displacement from menin; FP activity change, % at 61.4 µM; 290,000 tested, under 10 active; AID 1766; inconclusive = falling polarisation curve, or a change in total fluorescence; inactive = total fluorescence flat and polarisation flat or rising; no compound was filed as active; the % refers to the polarisation; negative = inhibition;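 note: % of control where 0% means no effect; inhibitors lower the polarisation; unlabelled MLL peptide was the positive control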
ClpP mod: qHTS Assay for Activators of ClpP. Potency, µM (highest dose often 57.5 µM), inactives show top-dose activity change, negative = active. hit rate 1.9% among 340,000. ATP-dependent Clp protease proteolytic subunit (Bacillus subtilis (strain 168)), P80244. purified B. subtilis ClpP, FRET peptide cleavage, 20 min; active = well fitted falling curve with a large enough effect; inconclusive = small, poorly fitted or top-dose-only effect; inactive = no such curve, though single readings can be large or run the other way; note: potency is the fitted concentration of half-maximal effect; the source files actives as falling curves though it sought activators and does not explain the sign; nearly all actives have a fitted effect of over 65% in size; many hits overshoot -100%
Target sequence (P80244 whole entry, looked up): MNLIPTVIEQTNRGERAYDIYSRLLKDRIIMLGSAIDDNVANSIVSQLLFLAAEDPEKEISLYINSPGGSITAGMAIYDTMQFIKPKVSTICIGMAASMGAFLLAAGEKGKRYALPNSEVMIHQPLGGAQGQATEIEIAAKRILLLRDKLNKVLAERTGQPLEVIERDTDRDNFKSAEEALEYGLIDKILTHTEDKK
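ClpP 10 microg/mL final, pH 8 Tris/KCl buffer with BSA, glycerol, Tween-20; compound pinned in; FRET-FV substrate; RT 20 min; Ex320/Em430; ΔFRET vs ADEP 5.8 microM, DMSO, no enzyme.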
An asterisk follows results filed as active; ? = inconclusive; / = not tested or not shown; & = joins results of further samples; [ ] = dose if it differs, or a comment.

canonical_smiles,D2 ag,gsp agonist,PINK1 modulator,Sfp inh,gsp antagonist,Menin MLL FP FL,ClpP mod
COc1ccc(NC(=O)c2cc3sccc3n2Cc2ccc(F)cc2)cc1OC,-2.5,10%,3.4%,9%,-5%,6.8,-11%
CC/C=C/C(=O)N1CC2(CC(c3cccc(NC(=O)CC)c3)=NO2)C[C@H]1C(N)=O (stereo partly specified),-1.0,-19%,2.7%,-8%,-4%,-2.2,-10%
CCOC(=O)C1=C(COC(=O)c2ccc(C)c(S(=O)(=O)N3CCOCC3)c2)NC(=O)NC1C (stereo unspecified),-3.4,-5%,0.1%,/,10%,/,-1.5%
CCC1=C(OC(=O)N(CC)CC)N2C(=O)OC(=NCCc3c[nH]c4ccccc34)[C@]2(Cc2ccccc2)[C@H]2C1=CC[C@H]1C(=O)N(c3ccccc3)C(=O)[C@H]12,-2.7,11%,1.0%,30%&13%,1%,5.3&-0.5,-4.2%
CCOc1ccc(C(=O)N2CCCC2)cc1OC,-0.5,-8%,-0.4%,3%,4%,6.3,-1.3%
CCOC(=O)c1c(C)[nH]c(C)c1C(=O)COC(=O)c1cccc(S(=O)(=O)NC)c1,-4.4,?,5.4%,11%,-10%,1.6,-1.0%
COc1ccccc1CN(C(=O)c1cnccn1)C(C(=O)NC1CCCCC1)c1cc(OC)c(OC)c(OC)c1 (stereo unspecified),-0.8,32%,-1.1%,19%,1%,/,2.1%
COCCn1cc(C(=O)N2CCC(C)CC2)c2c3ccccc3n(C)c2c1=O,-0.3,-37%[inhibitor],4.7%[38.3 µM],-3%,-3%,1.3,16µM*
O=C(CNC(=O)c1ccco1)OCc1ccc(C(=O)Oc2ccccc2)cc1,2.1,-32%[inhibitor],0.1%,-4%,-21%,0.1,-0.1%
CSc1nc(NNC=O)cc(Oc2ccc(NC(C)=O)cc2)n1,0.6,-29%,0.0%,6%,7%,-2.2,2.3%
Cc1cccc(NC(=O)C(C)N2C(=O)C3C4CC(C(Br)C4Br)C3C2=O)c1 (stereo unspecified),-0.7,-23%,2.9%,-5%,-4%,0.2,2.0%
Cn1c(=O)c2c(ncn2CC(=O)OCC(=O)NCCc2ccccc2)n(C)c1=O,-5.4,?,-2.5%,/,16%,/,1.4%
O=C(CN1C(=O)NC2(CCCC2)C1=O)NCCc1ccc(Cl)cc1Cl,-3.0,-2%,0.8%,/,-6%,/,-0.5%
Cc1ccc(C(=O)Nc2ccccc2C(=O)N2CCCC2)cc1[N+](=O)[O-],-2.7,-22%,1.6%,-3%,13%,1.9,0.8%
Nc1c2c(nc3ccccc13)N(C1CCCCC1)CC2,0.4,8%,2.4%,-56%,12%,-0.9,14µM*
COc1ccc(NC(=O)CCC(=O)Nc2nnc(C3CCCCC3)s2)c(OC)c1,-3.9,-11%,1.2%,?,4%,3.5,-4.6%
CCCS(=O)(=O)NC(=O)C1(C)CCN(C(=O)c2ccc(OC)cc2)C1 (stereo unspecified),-3.2,/,0.3%,/,/,/,-1.4%
COC(=O)c1ccc(Cn2c(C)c(C(=O)NCc3cccs3)sc2=O)o1,-3.6,/,0.1%,/,/,/,-2.4%
NC(c1csc(Nc2ccc(C(=O)c3ccccc3)cc2)n1)C1CCCCC1 (stereo unspecified),15,/,-1.2%,/,/,/,-2.6%
NC(=O)c1ncc(C(F)(F)F)cc1Oc1cccc(F)c1,-4.6,10%,-2.6%,21%,-11%,5.7,0.8%
Cc1nc(SCN2C(=O)c3ccccc3C2=O)n[nH]1,-1.8,-5%,-2.9%,-3%,2%,1.7,2.8%
CC(=O)OC1CC(C)(C)N(OC(=O)c2ccccc2)C(C)(C)C1,-3.3,-6%,0.0%,-7%,-12%,3.6,-3.3%
Cc1ccc(SCc2nc3ccccc3[nH]2)cc1,0.3,24%,-1.1%[38.3 µM],11%,-6%,-1.0,-5.2%
CCc1ccc(NC(=O)CSc2ccc(-c3sc(C)nc3C)nn2)cc1,-1.1,?,3.8%,4%,?,/,2.1%
O=C1S/C(=C\c2ccc(O)c([N+](=O)[O-])c2)C(=O)N1c1ccccc1Cl,-11,-2%,?,?,?,6.3,-0.1%
O=C(Cc1ccccc1)NCC(=O)OCC(=O)c1ccc([N+](=O)[O-])cc1,8.4,-2%,-3.0%,-36%,5%,-1.1,-1.4%
C/C=C(\C)CN1CCC(n2nccc2NC(=O)CCOc2ccccc2)CC1,-4.8,-13%[15.4 µM],-1.1%,5%,2%,4.5,-8.9%
Cc1cc(C2=NNC(=NC3CC3)SC2)c(C)n1Cc1ccco1,0.6,-27%,?,?,-13%,2.6,-3.0%
C=C1N(c2ccccc2)C(=O)OC1(C)C,-0.3,-10%,2.8%,14%,-6%,4.5,-3.1%
Cc1ccc(S(=O)(=O)c2ccc(Cl)cc2)cc1S(=O)(=O)N(C)CC(=O)O,-3.4,-6%,-1.5%,17%,-18%,-1.4,-1.8%
Cc1ccc(C(=O)N(Cc2nc(-c3ccc(C)cc3)no2)C(C)C)cc1,3.3,-16%,6.5%,10%,-26%,1.7,0.2%
COc1ccc(C(CC(=O)O)NS(=O)(=O)c2ccc(C)cc2)cc1 (stereo unspecified),-3.1,-3%,-13%[38.3 µM],-8%,-5%,1.5,-1.0%
COc1ccc(CCN2CC(C(=O)NCc3ccon3)CCC2=O)cc1 (stereo unspecified),0.8,-19%,1.2%,/,/,/,0.4%
COCCN(CCOC)C(=O)c1ccc(SCc2ccc(C)cc2)c([N+](=O)[O-])c1,-7.6,6%[15.4 µM],0.6%,-7%,-5%,-3.4,/
COc1ccccc1CN(C)S(=O)(=O)c1cccs1,-0.8,8%,-0.3%,9%,?,6.6,-2.3%
CN(C)/C=N/c1cc(=O)n(C)c(=O)n1Cc1ccccc1,-4.6,-16%,0.0%,14%&18%,0%,0.7&-0.5,0.0%
O=C(Nc1ccccn1)C1CCN(S(=O)(=O)c2ccc3c(c2)OCCCO3)CC1,-2.6,-4%[15.4 µM],2.3%,/,-14%,/,0.1%
Cc1ccc([C@@H]2CC=C(C(=O)O)[C@H](c3ccc(Cl)cc3)N2S(=O)(=O)c2ccc(C)cc2)cc1,1.9,/,0.3%,/,-25%,/,0.8%
CCOCCCNC(=O)C1CCC(CNS(=O)(=O)c2ccc(F)cc2)CC1 (stereo unspecified),-2.6,1%,5.7%,23%,3%,2.3,?
Cc1ccc(-c2nnc3sc(CCc4ccccc4)nn23)cc1,-0.8,13%,-3.4%[38.3 µM],?,15%,9.2,0.6%
O=C(COc1ccccc1C(=O)c1cnn(-c2ccccc2)c1)Nc1ccccc1,3.8,4%[15.4 µM],0.4%&0.7%,6%,-20%,-2.6,-2.0%
C=C1SC(Nc2c(C)cc(C)cc2C)=NC12CCCCC2,0.0,-25%,?,2%,-5%,-3.7,/
COCCOC1CCN(C(=O)c2cc(COc3ccc(-n4cncn4)cc3)on2)CC1,-2.6,-23%,-1.0%,6%,10%,/,0.4%
COc1cc(C2C(C#N)=C(N)Oc3n[nH]c(C)c32)ccc1OC(=O)c1ccccc1 (stereo unspecified),-4.1,-39%,-1.2%[38.3 µM],6%,0%,2.5,1.0%
C=C(c1ccc(O)cc1)c1ccc(O)cc1,-1.8,-55%[inhibitor],-1.6%,-2%,4%[15.4 µM],5.1,-23%
CN(C)S(=O)(=O)c1ccc(Cl)c(NC(=O)CN2CCN(c3ccccn3)CC2)c1,?,9%,2.1%,8%,-25%,12,/
O=C(CN1C(=O)NC2(CCCCCC2)C1=O)Nc1ccc(S(=O)(=O)N2CCOCC2)cc1,-2.3,0%,0.6%,11%,4%,2.9,0.3%
S=C(NCc1ccco1)N1CCN(c2ccccc2Cl)CC1,-2.9,-11%,3.6%,-1%,-12%,-1.0,/

One compound at a time, from the list above. Values in the order: D2 ag	gsp agonist	PINK1 modulator	Sfp inh	gsp antagonist	Menin MLL FP FL	ClpP mod
`S=C(NCc1ccco1)N1CCN(c2ccccc2Cl)CC1` reads -2.9	-11%	3.6%	-1%	-12%	-1.0	/
`COCCOC1CCN(C(=O)c2cc(COc3ccc(-n4cncn4)cc3)on2)CC1` reads -2.6	-23%	-1.0%	6%	10%	/	0.4%

The results go on:
canonical_smiles,D2 ag,gsp agonist,PINK1 modulator,Sfp inh,gsp antagonist,Menin MLL FP FL,ClpP mod
COc1cc2c(cc1OC)CN(S(=O)(=O)/C=C/c1ccccc1)CC2,1.0,-47%[inhibitor][15.4 µM],-2.0%,-7%,5%,5.6,/
CN1C(=O)c2ccccc2C(C(=O)NCCCN2CCCC2=O)C1c1c[nH]c2ccccc12 (stereo unspecified),0.7,?,1.2%,13%,2%,1.5,-19%
O=C(NC12CC3CC(CC(C3)C1)C2)N1CCN(C2CCCCC2)CC1,-8.5,-2%,3.0%,0%,5%,-7.6,0.1%
Brc1ccc(-c2cn3cccnc3n2)cc1,-1.4,6%,-2.3%,14%,7%,-0.1,?
Cc1ccccc1NC(=O)CSC(N)=O,-1.6,15%,4.8%,14µM*,3%,-0.7,-1.9%
COc1ccc(C(=O)COC(=O)CCN2C(=O)[C@@H]3[C@H](C2=O)[C@@H]2C[C@H]3C(Br)C2Br)cc1 (stereo partly specified),-4.3,-31%[inhibitor],2.6%,-1%,-10%,1.1,0.8%
C/C(=N\N=c1/sc2ccccc2n1C)c1ccc(N2CCOCC2)cc1,-0.7,16%[15.4 µM],0.5%,-6%,9%,2.7,/
CCCNC(=O)C1(S(=O)(=O)c2ccccc2)CC=CC1,-5.1,-1%,0.4%,5%,10%,-3.1,0.6%
